# Myc binder = binders of human c-Myc, primary screen, biochemical, small molecule microarray, anti-His fluorescence. AID 624141, 2012. calls only. hit rate 1.5% among 17,000. His-c-Myc binding;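 active = spot fluorescence over background with P-value below 7% in all four replicate spots, showing protein binding; compounds were printed on slides so no solution concentration is given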;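 note: score is binary with 100 for all four spots passing and 0 otherwise; about 2 pmol printed per array spot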
# Target sequence (P01106 whole entry, looked up): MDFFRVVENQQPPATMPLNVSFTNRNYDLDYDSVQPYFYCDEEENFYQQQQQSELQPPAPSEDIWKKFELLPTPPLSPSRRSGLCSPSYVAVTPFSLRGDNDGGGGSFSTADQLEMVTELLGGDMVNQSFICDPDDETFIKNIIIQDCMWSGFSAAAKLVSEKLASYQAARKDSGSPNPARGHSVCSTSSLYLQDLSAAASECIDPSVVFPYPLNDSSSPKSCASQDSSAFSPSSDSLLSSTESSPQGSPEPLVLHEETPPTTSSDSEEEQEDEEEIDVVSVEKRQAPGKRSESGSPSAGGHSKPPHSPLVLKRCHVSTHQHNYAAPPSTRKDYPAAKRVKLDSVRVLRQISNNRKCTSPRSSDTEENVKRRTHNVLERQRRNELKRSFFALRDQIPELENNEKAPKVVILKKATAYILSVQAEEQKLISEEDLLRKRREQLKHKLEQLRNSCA
# p53 mut binder = binders of human mutant p53, primary screen, biochemical, small molecule microarray, anti-GST fluorescence; calls only; small molecule microarray binding; mutant tumor protein p53 (GST-tagged), Homo sapiens; hit rate 0.4% among 17,000;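 active = compounds whose four printed spots each glow above background more than chance allows, each with a p-value under 7%; compounds were printed on slides so no solution concentration is given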;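 note: about 2 pmol printed per array spot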
# ID4 SMM = binders of human ID4 protein, primary screen, biochemical, small molecule microarray, single point; AID 624137, 2012; Flag-ID4 binding, fluorescence F/B; hit rate 1.2% among 31,000; calls only;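 active = spot signal over background at p below 0.07 in all four prints; compounds were printed on slides so no solution concentration is given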;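 note: a binder raises fluorescence above local background on the spot; about 2 pmol printed per array spot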
# Target sequence (P47928 whole entry, looked up): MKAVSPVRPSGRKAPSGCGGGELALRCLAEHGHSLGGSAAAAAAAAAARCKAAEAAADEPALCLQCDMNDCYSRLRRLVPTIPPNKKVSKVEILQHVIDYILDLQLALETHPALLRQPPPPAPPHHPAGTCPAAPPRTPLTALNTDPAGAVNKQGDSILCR
# STAT3 SMM = STAT3 binders, primary screen, biochemical, small molecule microarray, single point, set 2. hit rate 0.2% among 17,000. calls only. AID 624138, 2012. His-STAT3 binding, anti-His fluorescence;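 active = compounds whose four printed spots each show fluorescence over background unusually high for their array block, chance value under 7%; compounds were printed on slides so no solution concentration is given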;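 note: about 2 pmol printed per array spot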
# Calls only; i = inactive; · = no result given; + = active, no number. A portion of the library; the hit share may differ from the screen's.
SMILES,Myc binder,p53 mut binder,ID4 SMM,STAT3 SMM
CC(=O)Nc1cc2ccccc2oc1=O,i,i,i,i
COC(=O)c1c(NC(=O)Cn2ccc([N+](=O)[O-])n2)sc2c1CCCC2,i,i,i,i
CC(=O)c1ccccc1OC(=O)CCN1C(=O)C2C3c4ccccc4C(c4ccccc43)C2C1=O (stereo not drawn),i,i,i,i
C[C@@H]1CN([C@H](C)CO)C(=O)c2cccc(NC(=O)NC3CCCCC3)c2O[C@@H]1CN(C)Cc1ccncc1,i,i,i,i
C[C@H](CO)N1C[C@H](C)[C@@H](CN(C)C(=O)Nc2ccc3c(c2)OCO3)Oc2ccc(NS(=O)(=O)c3cccs3)cc2CC1=O,i,i,i,i
C[C@@H]1CCCCO[C@@H](CN(C)C)[C@H](C)CN([C@@H](C)CO)C(=O)c2cc(NC(=O)Cc3ccccc3)ccc2O1,i,i,i,i
CC(C)NC(=O)Nc1ccc2c(c1)C(=O)N([C@H](C)CO)C[C@@H](C)[C@H](CN(C)C(=O)c1ccncc1)OCCCC[C@@H](C)O2,i,i,i,i
Cc1noc(C)c1S(=O)(=O)Nc1cccc2c1O[C@H](CN(C)CC1CC1)[C@H](C)CN([C@H](C)CO)C2=O,i,i,i,i
O=C1O[C@@H](c2ccccc2)[C@@H](c2ccccc2)N2[C@@H](c3ccccc3OCCO)[C@]3(C(=O)Nc4ccccc43)[C@@H](C(=O)Nc3nc4ccccc4s3)[C@H]12,i,i,i,i
Cc1noc(C)c1S(=O)(=O)N(C)C[C@@H]1Oc2c(cccc2N(C)C)C(=O)N([C@@H](C)CO)C[C@H]1C,i,i,i,i
C[C@H](CO)N1C[C@H](C)[C@@H](CN(C)Cc2ccc(Oc3ccccc3)cc2)Oc2c(NC(=O)c3ccc(-c4nccs4)cc3)cccc2C1=O,i,i,·,i
C[C@@H]1CN([C@@H](C)CO)C(=O)Cc2cc(NC(=O)NC3CCCCC3)ccc2O[C@@H]1CN(C)C(=O)Nc1ccc(C(F)(F)F)cc1,i,i,i,i
C[C@@H]1CN([C@@H](C)CO)C(=O)c2cc(NC(=O)Nc3cccc4ccccc34)ccc2O[C@H]1CN(C)CC1CCCCC1,i,i,·,i
C[C@H](CO)N1C[C@H](C)[C@@H](CN(C)Cc2ccc(C(=O)Nc3ccccc3N)cc2)Oc2ccc(NC(=O)Cn3cnnn3)cc2CC1=O,i,i,·,i
C[C@@H]1CCCCO[C@H](CN(C)Cc2ccncc2)[C@H](C)CN([C@H](C)CO)C(=O)c2cc(NS(C)(=O)=O)ccc2O1,i,i,i,i
C[C@@H]1CN([C@@H](C)CO)C(=O)c2cc(NC(=O)C3CC3)ccc2O[C@@H]1CN(C)Cc1ccc(C(F)(F)F)cc1,i,i,i,i
C[C@H]1CN([C@@H](C)CO)C(=O)c2cccc(NS(=O)(=O)c3ccccc3)c2O[C@@H]1CN(C)C,i,i,i,i
C[C@H](CO)N1C[C@H](C)[C@@H](CN(C)S(=O)(=O)c2cn(C)cn2)Oc2c(NC(=O)c3nc4ccccc4s3)cccc2C1=O,i,i,i,i
O=C1O[C@@H](c2ccccc2)[C@@H](c2ccccc2)N2[C@@H](c3ccc(O)cc3)[C@]3(C(=O)Nc4ccc(C#CCCO)cc43)[C@@H](C(=O)N3CCCCCCC3)[C@H]12,i,i,i,i
C[C@@H]1CN([C@@H](C)CO)C(=O)c2cccc(NC(=O)c3ccncc3)c2O[C@@H]1CN(C)Cc1ccc(C(F)(F)F)cc1,i,i,i,i
C[C@@H]1CCCCO[C@H](CN(C)S(=O)(=O)c2cn(C)cn2)[C@H](C)CN([C@@H](C)CO)C(=O)c2cc(NS(C)(=O)=O)ccc2O1,i,i,i,i
C[C@@H]1CCCCO[C@@H](CN(C)C(=O)CCC(F)(F)F)[C@H](C)CN([C@@H](C)CO)C(=O)c2cc(NS(=O)(=O)c3ccccc3)ccc2O1,+,i,i,i
O=C(CSc1nnc(-c2ccncc2)o1)c1cccc([N+](=O)[O-])c1,i,i,i,i
C[C@H](CO)N1C[C@H](C)[C@@H](CN(C)Cc2ccccc2)Oc2ccc(NC(=O)NC3CCCCC3)cc2CC1=O,i,i,i,i

# One compound at a time, as listed above. Order of values: Myc binder | p53 mut binder | ID4 SMM | STAT3 SMM
# C[C@@H]1CN([C@@H](C)CO)C(=O)c2cc(NC(=O)Nc3cccc4ccccc34)ccc2O[C@H]1CN(C)CC1CCCCC1 across the screens: i | i | · | i
# C[C@@H]1CCCCO[C@H](CN(C)Cc2ccncc2)[C@H](C)CN([C@H](C)CO)C(=O)c2cc(NS(C)(=O)=O)ccc2O1 across the screens: i | i | i | i
# C[C@@H]1CN([C@@H](C)CO)C(=O)c2cc(NC(=O)C3CC3)ccc2O[C@@H]1CN(C)Cc1ccc(C(F)(F)F)cc1 across the screens: i | i | i | i

# Next section
SMILES,Myc binder,p53 mut binder,ID4 SMM,STAT3 SMM
C[C@@H]1CN([C@@H](C)CO)C(=O)c2cccc(NS(=O)(=O)c3ccccc3)c2O[C@@H]1CN(C)C(=O)NC1CCCCC1,i,i,i,i
OC(CSc1nc2ccccc2s1)Cn1c2ccccc2c2ccccc21 (stereo not drawn),i,i,i,i
C[C@H]1CN([C@@H](C)CO)C(=O)c2cccc(NC(=O)c3ccncc3)c2O[C@H]1CN(C)C(=O)NC1CCCCC1,i,i,i,i
COc1ccc2ccc(=O)oc2c1C(OC(C)=O)C(=O)C(C)C (stereo not drawn),i,i,i,i
C[C@@H]1CN([C@@H](C)CO)C(=O)c2cc(NS(=O)(=O)c3ccccc3)ccc2O[C@@H](C)CCCCO[C@H]1CN(C)S(=O)(=O)c1ccc(F)cc1,i,i,·,i
C[C@@H]1CN([C@@H](C)CO)C(=O)CCCn2cc(nn2)CO[C@@H]1CN(C)C(=O)CCC(F)(F)F,i,i,i,i
CN(CC(N)=O)S(=O)(=O)c1ccc2ccccc2c1,i,i,i,i
C=CCOC(=O)[C@H]1[C@@H]2C(=O)O[C@@H](c3ccccc3)[C@@H](c3ccccc3)N2[C@@H](c2ccc(OCCOC(=O)[C@@H]3C[C@@H]4C(=O)N[C@@H](Cc5ccccc5)C(=O)N4[C@@H]3c3cccc(OCCO)c3)cc2)[C@]12C(=O)Nc1ccccc12,i,i,i,i
Cc1ccc(S(=O)(=O)NCCNc2ccc([N+](=O)[O-])cc2)cc1,i,i,i,i
C[C@@H]1CN([C@H](C)CO)C(=O)c2cc(NC(=O)CCCN(C)C)ccc2O[C@@H]1CN(C)Cc1ccc2c(c1)OCO2,i,i,i,i
CN(C)c1nc(N)nc(CSc2nnnn2C)n1,i,i,i,i
C[C@H](CCC(=O)NCC(=O)O)[C@H]1CC[C@H]2[C@@H]3[C@H](O)C[C@@H]4C[C@H](O)CC[C@]4(C)[C@H]3C[C@H](O)[C@]12C,i,i,i,i

# Among those listed so far, these contain a thiophene ring, fused or not.
SMILES,Myc binder,p53 mut binder,ID4 SMM,STAT3 SMM
COC(=O)c1c(NC(=O)Cn2ccc([N+](=O)[O-])n2)sc2c1CCCC2,i,i,i,i
C[C@H](CO)N1C[C@H](C)[C@@H](CN(C)C(=O)Nc2ccc3c(c2)OCO3)Oc2ccc(NS(=O)(=O)c3cccs3)cc2CC1=O,i,i,i,i

# Other results follow.
SMILES,Myc binder,p53 mut binder,ID4 SMM,STAT3 SMM
COc1ccccc1NC(=O)CCSc1nnc(-c2ccco2)o1,i,i,i,i
C[C@H]1CN([C@@H](C)CO)C(=O)Cc2cc(NC(=O)NC3CCCCC3)ccc2O[C@@H]1CN(C)Cc1ccncc1,i,i,i,i
CC(C)NC(=O)Nc1ccc2c(c1)C(=O)N([C@@H](C)CO)C[C@H](C)[C@@H](CN(C)S(=O)(=O)c1cn(C)cn1)OCCCC[C@@H](C)O2,i,i,i,i
NC(=O)COc1c(-c2ccccc2)oc2ccccc2c1=O,i,i,i,i
O=C(C1=C[C@H](C2CCCCC2)C[C@H](OCc2ccc(CO)cc2)O1)N1CCN(Cc2ccc3c(c2)OCO3)CC1,i,i,i,i
NC(=O)c1c(NC(=O)c2cnn3c(C(F)F)cc(-c4ccccc4)nc23)sc2c1CCC2,i,i,i,i
CNC[C@H]1OCc2cn(nn2)CCCC(=O)N([C@@H](C)CO)C[C@@H]1C,i,i,i,i
C[C@H](CO)N1C[C@H](C)[C@@H](CN(C)Cc2ccc(Cl)c(Cl)c2)Oc2c(NS(=O)(=O)c3cccs3)cccc2C1=O,i,i,i,i
CNC[C@@H]1Oc2c(NC(=O)Nc3c(C)noc3C)cccc2C(=O)N([C@H](C)CO)C[C@H]1C,i,i,i,i
C[C@@H]1CN([C@H](C)CO)C(=O)Cc2cc(NS(=O)(=O)c3cn(C)cn3)ccc2O[C@@H]1CN(C)Cc1ccccc1,i,i,i,i
C[C@H](CO)N1C[C@H](C)[C@@H](CN(C)C(=O)NC2CCCCC2)Oc2ccc(NC(=O)c3ccncc3)cc2CC1=O,i,i,i,i
CC(OC(=O)c1cccc(O)c1)C(=O)O (stereo not drawn),i,i,i,i
C[C@@H]1CN([C@H](C)CO)C(=O)c2cccc(NS(=O)(=O)c3cccs3)c2O[C@@H]1CN(C)S(=O)(=O)c1ccc(Cl)cc1,i,i,i,i
COc1ccc(NC(=O)N(C)C[C@H]2OCCCC[C@H](C)Oc3ccc(NS(C)(=O)=O)cc3C(=O)N([C@@H](C)CO)C[C@H]2C)cc1,i,i,·,i
Cc1noc(C)c1NC(=O)N(C)C[C@@H]1Oc2c(NC(=O)NC3CCCCC3)cccc2C(=O)N([C@@H](C)CO)C[C@@H]1C,i,i,i,i
O=C(NCc1ccccn1)c1cnn2c(C(F)(F)F)cc(-c3cccs3)nc12,i,i,i,i
COCCOC(=O)N1C(=O)[C@@]2(c3cc(C#CC4=CCCCC4)ccc31)[C@H](c1ccccc1OCCO)N1[C@H](c3ccccc3)[C@H](c3ccccc3)OC(=O)[C@H]1[C@@H]2C(N)=O,i,i,·,i
C[C@H]1CCCCO[C@H](CN(C)C(=O)C2CCCCC2)[C@@H](C)CN([C@@H](C)CO)C(=O)c2cc(NS(=O)(=O)c3ccccc3)ccc2O1,+,i,i,i
c1ccc(CN2CCC3(CCc4ccccc43)CC2)cc1,i,i,i,i
CC(=O)N(OCc1ccccc1)[C@@H]1c2cc(C#N)ccc2OC(C)(C)[C@H]1O,i,i,i,i
CN1CCC(N(C)Cc2ccc(-c3ccccc3[N+](=O)[O-])o2)CC1,i,i,i,i
OC(Cn1cncn1)(Cn1cncn1)c1ccc(F)cc1F,i,i,i,i
Cc1noc(C)c1NC(=O)Nc1ccc2c(c1)CC(=O)N([C@H](C)CO)C[C@@H](C)[C@@H](CN(C)Cc1ccncc1)O2,i,i,i,i
CN1CCN(C(=O)C2=C[C@H](c3ccc4c(c3)OCO4)C[C@H](OCCCCO)O2)CC1,i,i,i,i

# 4 successive records from above, for reference:
SMILES,Myc binder,p53 mut binder,ID4 SMM,STAT3 SMM
Cc1noc(C)c1NC(=O)N(C)C[C@@H]1Oc2c(NC(=O)NC3CCCCC3)cccc2C(=O)N([C@@H](C)CO)C[C@@H]1C,i,i,i,i
O=C(NCc1ccccn1)c1cnn2c(C(F)(F)F)cc(-c3cccs3)nc12,i,i,i,i
COCCOC(=O)N1C(=O)[C@@]2(c3cc(C#CC4=CCCCC4)ccc31)[C@H](c1ccccc1OCCO)N1[C@H](c3ccccc3)[C@H](c3ccccc3)OC(=O)[C@H]1[C@@H]2C(N)=O,i,i,·,i
C[C@H]1CCCCO[C@H](CN(C)C(=O)C2CCCCC2)[C@@H](C)CN([C@@H](C)CO)C(=O)c2cc(NS(=O)(=O)c3ccccc3)ccc2O1,+,i,i,i

# Additional results
SMILES,Myc binder,p53 mut binder,ID4 SMM,STAT3 SMM
COc1ccc(C2C(C(=O)Nc3cc(OC)c(Cl)cc3OC)=C(C)Nc3ncnn32)c(OC)c1 (stereo not drawn),i,i,i,i
C[C@@H]1CN([C@@H](C)CO)C(=O)CCCn2cc(nn2)CO[C@H]1CN(C)C(=O)c1ccc2ccn(C)c2c1,i,i,i,i
C[C@H]1CN([C@@H](C)CO)C(=O)c2cccc(NS(=O)(=O)c3ccccc3)c2O[C@H]1CN(C)C(=O)Nc1ccc(F)cc1,i,i,·,i
C[C@@H]1CN([C@H](C)CO)C(=O)Cc2cc(NS(=O)(=O)c3cccs3)ccc2O[C@H]1CN(C)S(=O)(=O)c1ccc(Cl)cc1,i,i,i,i
C[C@H](CO)N1C[C@H](C)[C@@H](CN(C)Cc2ccc(C(=O)O)cc2)Oc2ccc(NC(=O)Cc3ccccc3)cc2CC1=O,i,i,i,i

# Ordered by SMILES length (rising): 3 of the compounds above
SMILES,Myc binder,p53 mut binder,ID4 SMM,STAT3 SMM
COc1ccc(C2C(C(=O)Nc3cc(OC)c(Cl)cc3OC)=C(C)Nc3ncnn32)c(OC)c1 (stereo not drawn),i,i,i,i
C[C@@H]1CN([C@@H](C)CO)C(=O)CCCn2cc(nn2)CO[C@H]1CN(C)C(=O)c1ccc2ccn(C)c2c1,i,i,i,i
C[C@H](CO)N1C[C@H](C)[C@@H](CN(C)Cc2ccc(C(=O)O)cc2)Oc2ccc(NC(=O)Cc3ccccc3)cc2CC1=O,i,i,i,i
